RGS16-Gao: modulates binding between human RGS16 and Galphao; O15492+P09471; bead-based flow cytometry RGS16-Galphao binding, fluorescence; actives lie on both sides; binding response (% of control), % at 10 µM; hit rate 0.38% among 220,000; AID 1441;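 active means below 25% or above 175%, edge rows of some plates excepted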;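 further: Galphao activated by GDP with aluminum fluoride before binding; 100% = wells without compound and 0% = beads without RGS; some results beyond the cut were filed as inactive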
HSV replic up: increases HSV replication in cells. HSV replication augmentation in cells, fold increase. maximum fold increase. hit rate 0.005% among 220,000;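 active means peak rise of 1.5-fold or more in the series; inconclusive means self-fluorescent or not available for retest; tested in PC3 cells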;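 further: first round at 10 µM; read as green reporter fluorescence; hits show the peak of a series up to 25 µM; 1 = signal of infected wells without compound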
GALR2 agonist: agonists of human galanin receptor 2 (GALR2); GALR2-expressing cells, agonist activation read-out; activation, %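 (tested at 5 µM)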; hit rate 0.48% among 140,000;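 active means above mean plus 3 SD of all compounds, about 5% in these data, not always enough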;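 further: 0% = vehicle buffer wells and 100% = reference agonist at full effect; tested in CHO reporter cells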
INS promoter inh: TRM-6 insulin promoter activity inhibition; TRM-6 cells (human fetal islet line), insulin promoter-eGFP reporter, imaging; reporter expression induced with tamoxifen; AID 1273; inhibition, % at 2 µM; hit rate 0.9% among 130,000;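 active means inhibition above the mean plus 3 SD, with well images judged a real hit on visual review, cut at about 60% in these data, passing the limit was not always enough; inconclusive means inhibition over the cutoff but images rejected on review; inactive means inhibition not above the cutoff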
PKD1 inh: blocks activity of human protein kinase D1 | Q15139 | PKD1 kinase fluorescence polarization assay | inhibition, %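 (about 10 µM by stock and volumes)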 | hit rate 0.056% among 200,000 | AID 797;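 active means inhibition of 50% or more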;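 further: controls were vehicle for no effect and a reference inhibitor for full effect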
Target sequence (Q15139 whole entry, looked up): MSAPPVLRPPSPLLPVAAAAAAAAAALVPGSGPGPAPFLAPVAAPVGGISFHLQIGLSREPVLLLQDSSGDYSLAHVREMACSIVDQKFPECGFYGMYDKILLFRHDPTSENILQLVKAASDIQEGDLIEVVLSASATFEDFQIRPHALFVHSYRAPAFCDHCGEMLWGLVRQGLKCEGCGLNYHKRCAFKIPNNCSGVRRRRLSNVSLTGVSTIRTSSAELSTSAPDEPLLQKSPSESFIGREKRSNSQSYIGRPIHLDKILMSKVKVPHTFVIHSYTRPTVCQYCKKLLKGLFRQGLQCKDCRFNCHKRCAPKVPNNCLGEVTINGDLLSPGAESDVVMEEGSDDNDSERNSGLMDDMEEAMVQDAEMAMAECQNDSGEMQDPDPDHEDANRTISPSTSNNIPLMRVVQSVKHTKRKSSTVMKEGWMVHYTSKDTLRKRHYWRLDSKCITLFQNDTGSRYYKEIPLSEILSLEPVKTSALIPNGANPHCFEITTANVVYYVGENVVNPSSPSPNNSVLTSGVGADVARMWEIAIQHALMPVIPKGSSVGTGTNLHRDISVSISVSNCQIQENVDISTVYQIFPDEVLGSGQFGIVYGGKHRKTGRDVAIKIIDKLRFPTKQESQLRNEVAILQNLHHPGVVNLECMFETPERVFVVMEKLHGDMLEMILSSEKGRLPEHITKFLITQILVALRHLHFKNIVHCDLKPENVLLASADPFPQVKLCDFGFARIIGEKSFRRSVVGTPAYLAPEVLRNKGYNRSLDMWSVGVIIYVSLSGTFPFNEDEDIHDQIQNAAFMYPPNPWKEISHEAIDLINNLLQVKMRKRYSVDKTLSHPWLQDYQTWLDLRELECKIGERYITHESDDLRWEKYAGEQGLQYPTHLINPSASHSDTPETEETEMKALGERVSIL
INS promoter inh cell count: further read-out of INS promoter inh, marked with its call; normalized cell count, %; measured here: cell count, toxicity; reference of the scale not given here;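 cells exposed to compound for 48 h; stained nuclei by imaging scaled within each plate; lower means fewer cells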
HSV replic up primary fold: further read-out of HSV replic up, marked with its call; fold increase; compound at 10 µM; measured here: primary screen fold increase 10 uM; tested in PC3 cells;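 GFP signal in the first replicate; 1 = infected wells without compound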
Starred values were filed as active, the others as inactive; i = inactive; u = inconclusive; x = not tested or not shown.

SMILES | RGS16-Gao | HSV replic up | HSV replic up primary fold | GALR2 agonist | INS promoter inh | INS promoter inh cell count | PKD1 inh
CCCCCCCCCC(=O)Nc1cccnc1 | 104.8 | i | 1.1 | x | x | x | -2.6
COc1ccc(-c2cc(C(F)F)n3ncc(C(=O)Nc4ccc(C(=O)N5CCOCC5)cc4)c3n2)cc1 | 94.3 | i | 0.78 | x | x | x | -5.5
CC1CN(C(=O)c2cc3cc([N+](=O)[O-])ccc3oc2=O)CC(C)O1 (stereo unspecified) | 120.4 | i | 0.96 | x | x | x | -0.5
Cc1ccc(S(=O)(=O)c2ccc(-n3nc(C)cc3N)cc2)cc1 | 98.5 | i | 1.02 | x | 41.7 | 197.1 | 0.9
COc1ccc2c(c1OC)C(=O)N1c3ccccc3SC21 (stereo unspecified) | 95.0 | i | 0.89 | -2.2 | 62.5 | 149.7 | -5.1
O=C(c1ccc(CN2CCOCC2)cc1)N1CCN(Cc2ccccc2)CC1 | 107.7 | i | 1.06 | -1.0 | x | x | -0.9
CC1CN(CC(=O)Nc2cccc(C(=O)Nc3cccc(C(F)(F)F)c3)c2)CC(C)O1 (stereo unspecified) | 100.5 | i | 0.65 | -0.5 | -26.7 | 99.0 | 1.6
O=C(CSc1n[nH]c(-c2ccc(S(=O)(=O)NC3CCCCC3)cc2)n1)N1CCCC1 | 103.0 | i | 1.25 | -2.2 | 42.3 | 109.7 | -13.5
Nc1nc(N)nc(-c2ccccn2)n1 | 104.7 | i | 1.08 | -1.3 | 22.9 | 137.3 | 0.0
CCn1c2ccccc2c2cc(NC(=O)CSc3nccc(=O)[nH]3)ccc21 | 101.5 | i | 0.99 | x | -13.3 | 87.9 | -1.5
CCC(C)c1ccc(S(=O)(=O)N2CC(=O)Nc3ccccc32)cc1 (stereo unspecified) | 137.7 | i | 1.03 | -0.5 | 20.0 | 69.5 | -3.6
COC(=O)CN(C#N)c1nc(N(C)C)nc(N(C)C)n1 | 101.1 | i | 0.99 | x | 57.1 | 97.0 | -1.2
Cc1cc(CN(C)C(=O)CC2C(=O)NCCN2CC(c2ccccc2)c2ccccc2)on1 (stereo unspecified) | 98.6 | i | 0.99 | x | 7.1 | 129.2 | 3.3
Cc1ccc2cc(CN(Cc3cccs3)Cc3nnnn3CC3CCCO3)c(=O)[nH]c2c1 (stereo unspecified) | 109.3 | i | 1.1 | -0.9 | x | x | 4.4
Cc1ccc(SCC(=O)Nc2cccnc2)cc1 | x | i | 1.02 | -1.5 | 43.8 | 119.1 | -0.2
COc1ccc(-n2nc(C(=O)NCC(=O)NCC3COc4ccccc4O3)c3ccccc3c2=O)cc1OC (stereo unspecified) | 101.9 | i | 0.85 | x | x | x | -7.0
CCCCCCSc1nsc(NC(=O)CC(C)C)n1 | 103.7 | i | 0.93 | -0.8 | 30.8 | 75.2 | 2.0
COc1ccc(C(=O)Nc2ncc3c(n2)CC(C)CC3=O)cc1 (stereo unspecified) | 104.5 | i | 0.96 | x | 36.4 | 85.3 | 1.0
O=C1NC(=O)C2(CCC(C(=O)O)C2)N1 (stereo unspecified) | 109.7 | i | 0.92 | -1.0 | 13.2 | 67.6 | -5.5
Nc1nnc(CC(=O)N/N=C/c2ccccc2OCc2ccccc2F)s1 | 102.1 | i | 1.2 | x | x | x | x
Cc1cc(C(=O)COC(=O)c2ccc([N+](=O)[O-])o2)c(C)n1CC1CCCO1 (stereo unspecified) | 95.8 | i | 1.06 | x | -7.1 | 75.0 | -2.7
COc1ccccc1CNC(=O)c1c(O)c2cc(OC)c(OC)cc2[nH]c1=O | 97.2 | i | 1.03 | -0.9 | x | x | -3.3
COc1cc(O)cc2occ(-c3ccc(O)cc3)c(=O)c12 | 106.8 | i | 1.09 | x | x | x | -19.5
COC(=O)CCN1CCC(C(N)=O)CC1 | 103.5 | i | 0.99 | -1.8 | 42.1 | 35.9 | -1.0
CSc1nc(Cc2ccccc2)nc2ccccc12 | 86.5 | i | 0.9 | x | x | x | 3.7
Cc1cc(-c2ccccc2)c(C#N)c(=S)[nH]1 | 101.0 | i | 1.01 | -1.1 | x | x | -5.0
Cc1ccc(C(=O)Nc2ccc3c(c2)ncn3C)cc1 | 101.1 | x | x | 0.1 | -140.0 | 82.3 | -8.9
CCN(C(=O)COC(=O)c1ccc(N2C(=O)c3ccccc3C2=O)cc1)C1CCS(=O)(=O)C1 (stereo unspecified) | 111.7 | i | 0.93 | x | x | x | -0.7
CCNc1nc(SC(C)C(=O)Nc2ccccc2)nc(N(C)C)n1 (stereo unspecified) | 104.8 | x | x | x | -23.1 | 97.9 | -0.2
O=C(NC1(C(F)(F)F)NC(=O)N(Cc2cccnc2)C1=O)c1cccs1 (stereo unspecified) | 100.3 | i | 0.96 | -2.5 | -182.3 | 95.2 | 3.5
CC(=O)Nc1ccc(OCC(O)CN2CCN(Cc3ccccc3)CC2)cc1 (stereo unspecified) | 117.0 | i | 1.05 | -0.1 | 66.7 | 141.5 | -5.6
O=C(NC(=S)N1CCCCC1CO)C12CC3CC(CC(C3)C1)C2 (stereo unspecified) | 97.1 | i | 0.98 | x | x | x | x
COc1ccc(-c2nnc(-c3ccc(N(C)C)cc3)o2)cc1 | 100.9 | i | 0.87 | -4.8 | -30.0 | 90.4 | -2.3
CC(=O)c1cccc(NC(=O)NCCS(C)=O)c1 (stereo unspecified) | 73.7 | i | 1.04 | -0.5 | x | x | -2.1
CNC(=S)Nc1sc2c(c1C(=O)OC)CCC2 | 102.4 | i | 1.2 | x | x | x | 9.7
Cc1c(CNCCc2ccc(Cl)cc2)c(C(=O)O)c(C)n1Cc1ccccc1 | 110.0 | i | 1.1 | x | -100.0 | 59.2 | -1.3
COC(=O)c1sccc1NC(=O)c1ccncc1 | 104.4 | i | 0.95 | -2.2 | 0.0 | 63.7 | -12.2
Cc1ccc(S(=O)(=O)N[C@H](C(=O)OCn2nnc3ccccc3c2=O)C(C)C)cc1 | 94.5 | i | 0.98 | -1.8 | -20.0 | 134.3 | 5.2
Cc1ccc(-c2cc(C(=O)N3CCCC3)no2)cc1 | 82.8 | i | 0.94 | -1.2 | 31.0 | 37.2 | -4.8
COc1ccccc1CNC(=O)C(NC(=O)c1ccccc1C)C(C)C (stereo unspecified) | 113.3 | i | 0.97 | x | -36.4 | 124.3 | 0.2
C=CCOc1ccc(C=Nc2ccc(OC)cc2)c(O)c1 | 78.3 | i | 0.96 | x | x | x | -4.0
COc1ccc2nc(SCC(=O)Nc3ccc4c(c3)OCCO4)[nH]c2c1 | 94.6 | x | x | -1.7 | -7.7 | 95.7 | -11.0
OCCC1CN(Cc2cccc(O)c2)CCN1CCc1ccccc1 (stereo unspecified) | 113.0 | i | 1.05 | x | x | x | 0.2
O=C(CSc1nc(-c2ccccc2)cs1)NC(=O)NCc1ccco1 | 106.4 | i | 0.95 | -2.2 | -38.1 | 99.2 | -0.2
C/C=C/c1ccc(Oc2nnnn2-c2ccc(C(N)=O)cc2)c(OC)c1 | 109.0 | i | 1.03 | -1.2 | 56.2 | 97.7 | -18.6
CC(=O)C1=C(O)C(=O)N(CCC(=O)O)C1c1ccc(Cl)cc1Cl (stereo unspecified) | 109.1 | i | 1.09 | -3.3 | -34.4 | 61.2 | 1.2
O=S(=O)(Cc1ccccc1)NCC1CCCN(Cc2cccc3nonc23)C1 (stereo unspecified) | 107.2 | i | 0.95 | x | x | x | -3.1
CCn1cc(C(=O)Nc2cccc(NC(C)=O)c2)c2cc(OC)c(OC)cc2c1=O | 99.1 | x | x | -1.3 | x | x | -13.5
O=C(O)/C=C\C(=O)Nc1ccc(OC(F)F)cc1 | 105.3 | i | 0.97 | x | -44.4 | 57.7 | -14.2
CC(=O)NS(=O)(=O)c1ccc(NC(=S)NC(=O)C(C)(C)C)cc1 | 94.8 | i | 1.01 | -3.9 | 34.3 | 53.8 | -7.8
Cc1nc2sc(C(c3cccs3)N3CC(C)CC(C)C3)c(O)n2n1 (stereo unspecified) | 104.5 | i | 0.83 | -0.3 | x | x | -2.3
CCCS(=O)(=O)N1CCN(C(=O)c2ccco2)CC1 | 101.7 | i | 0.8 | -2.6 | 1.7 | 115.1 | -7.6
Cc1ccc(C(=O)NC(=S)Nc2ccc(N3CCOCC3)cc2)c(C)c1 | 107.6 | i | 0.94 | x | -25.0 | 132.5 | -5.8
CC(CN(C)C)CN1c2ccccc2CCc2ccccc21 (stereo unspecified) | 98.6 | i | 0.74 | x | x | x | x
CC(Sc1nnc2ccccn12)C(=O)NCc1ccc2c(c1)OCO2 (stereo unspecified) | 105.8 | i | 0.95 | x | 6.7 | 108.4 | -0.3
CC1CCC(NC(=O)c2ccc(CS(=O)(=O)Cc3ccccc3F)o2)CC1 (stereo unspecified) | 97.0 | i | 1.01 | -3.5 | 35.7 | 81.7 | -10.7
O=C(CCN1C(=O)c2ccncc2C1=O)NCc1ccc(Cl)cc1 | 107.7 | i | 1.01 | -3.5 | 50.0 | 120.2 | -0.1
Cc1cccc(Oc2cc(NC(=O)Cn3cnc([N+](=O)[O-])n3)cc([N+](=O)[O-])c2)c1 | 99.7 | i | 0.91 | -0.5 | -39.5 | 130.0 | -6.9
Cc1ccsc1C=Nc1ccc(O)cc1 | 97.3 | u | x | -1.6 | x | x | -2.0
O=C(CSc1nc2ccccc2s1)NCc1ccc2c(c1)OCO2 | 105.0 | i | 1.08 | -0.3 | -29.6 | 108.0 | 0.9

One compound at a time, as listed above. Values in the order: RGS16-Gao	HSV replic up	HSV replic up primary fold	GALR2 agonist	INS promoter inh	INS promoter inh cell count	PKD1 inh
O=C(CCN1C(=O)c2ccncc2C1=O)NCc1ccc(Cl)cc1 is entered as 107.7	i	1.01	-3.5	50.0	120.2	-0.1
Cc1nc2sc(C(c3cccs3)N3CC(C)CC(C)C3)c(O)n2n1 (stereo unspecified) is entered as 104.5	i	0.83	-0.3	x	x	-2.3
CC(Sc1nnc2ccccn12)C(=O)NCc1ccc2c(c1)OCO2 (stereo unspecified) is entered as 105.8	i	0.95	x	6.7	108.4	-0.3

Carrying on.
SMILES | RGS16-Gao | HSV replic up | HSV replic up primary fold | GALR2 agonist | INS promoter inh | INS promoter inh cell count | PKD1 inh
COc1ccc(NC(=S)NC(=O)c2ccc(Br)o2)cc1 | 88.6 | i | 1.11 | x | -17.6 | 87.7 | 0.8
COc1cccc(Nc2ncc(C#N)c(N)n2)c1 | 96.4 | i | 1.02 | x | x | x | x
CC(=O)c1cc2c(cc1NC(=O)C1CCC1)OCO2 | 61.1 | i | 0.98 | x | x | x | -8.9
O=C(c1ccoc1)N1CCC2(CC1)Oc1ccc(F)cc1C(=O)C21CC(c2ccc(Cl)cc2)=NO1 (stereo unspecified) | 109.2 | i | 0.69 | x | x | x | x
O=C(O)CC/C(=N/NC(=O)CNC(=O)Cc1ccc(Cl)cc1)c1ccccc1 | 98.7 | i | 1 | x | x | x | x
O=C(c1ccc(C#CC2(O)CCCCC2)cc1)N1CCN(Cc2ccccc2)CC1 | 103.1 | i | 0.94 | -0.3 | 5.4 | 94.3 | -5.7
CC(=O)c1ccc(N2CCN(C(=O)Nc3ccc(C(C)C)cc3)CC2)cc1 | 107.0 | i | 0.91 | x | 50.0 | 123.3 | -2.3
CCn1cc(C(C)NC(=O)Nc2ccc3c(c2)OCO3)c(C)n1 (stereo unspecified) | 103.1 | i | 1.05 | x | -15.8 | 90.6 | 0.8
CCOC(=O)C1(CCOC)CCN(Cc2nc(-c3cccs3)oc2C)CC1 | 99.9 | i | 1.03 | x | x | x | -7.9
CN1CCN(C(=O)c2ccc3c(c2)N(Cc2ccc(Cl)cc2)C(=O)c2ccccc2S3=O)CC1 (stereo unspecified) | 102.2 | i | 0.85 | -0.1 | -71.4 | 126.6 | 0.5
COc1ccccc1-c1nc2ccccc2nc1-c1ccccc1OC | 113.2 | i | 0.93 | -0.2 | x | x | 5.8
CCOc1ccccc1C1C(C#N)=C(N)Oc2n[nH]c(CC)c21 (stereo unspecified) | 101.8 | i | 0.94 | -2.8 | -9.1 | 52.4 | 7.1
Cc1ccnc(NC(=O)COc2ccccc2[N+](=O)[O-])c1 | 105.9 | i | 0.94 | x | x | x | 0.6
CCC(=O)c1ccc(O)c(CC=C(C)C)c1 | 100.9 | i | 0.93 | -1.2 | x | x | 12.1
OC(CN1CCN(c2ccccn2)CC1)Cn1c2ccccc2c2ccccc21 (stereo unspecified) | 98.7 | i | 0.76 | -2.3 | 6.9 | 137.2 | -10.6
Cc1ccc(NCc2cccnc2)c(Br)c1 | 81.1 | i | 0.76 | 0.7 | 66.7* | 63.9* | -10.6
CCCC1CCC(=C(C#N)C(N)=O)CC1 (stereo unspecified) | 101.0 | i | 1 | 0.0 | 51.4 | 63.4 | -15.1

Compounds as they come; any-hit rate near 1.1%.
